Menin MLL FP FL = inhibitors of human menin-MLL interaction, wild-type MLL peptide; Fluorescence polarization, fluorescein-MLL peptide displacement from menin; FP activity change, % at 61.4 µM; 290,000 tested, under 10 active; AID 1766; inconclusive = falling polarisation curve, or a change in total fluorescence; inactive = total fluorescence flat and polarisation flat or rising; no compound was filed as active; the % refers to the polarisation; negative = inhibition;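 note: % of control where 0% means no effect; inhibitors lower the polarisation; unlabelled MLL peptide was the positive control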
Sfp PPTase inh = Sfp phosphopantetheinyl transferase inhibition; Q9F4F7; Biochemical Sfp PPTase activity, qHTS; Potency, µM, for the others: max response, negative = inhibition, hits mostly inhibitors; hit rate 3.5% among 310,000; AID 1490; active = well fitted inhibition curve with a large enough effect; inconclusive = small, poorly fitted or top-dose-only effect, or another doubt; inactive = no such curve, though single readings can be large or run the other way;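 note: the enzyme is Sfp with the accession as filed and its product quenches rhodamine fluorescence; potency is the fitted concentration of half-maximal effect; 0% = enzyme reaction without inhibitor and -100% = no enzyme wells; top concentration of the series not given in the record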
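Fluorescence-quenching assay with 15 nM Sfp, 5 uM rhodamine-CoA and 12.5 uM BHQ-2-labelled ybbR peptide in pH 7.6 Hepes/MgCl2 buffer. Enzyme was pre-incubated with compound for 15 min at room temperature. Rate was taken from the 30-min fluorescence change (525/598 nm).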
The depositor's hits bear a star; ? = inconclusive; & = joins results of further samples; [ ] = dose if it differs, or a comment. These rows are one share of the data; rates above refer to the full screens.

Under each structure – Menin MLL FP FL, Sfp PPTase inh
- COC(=O)C/C=C\[C@@H](C)[C@@H](/C=N\OC[C@@H](C)[C@H](OCc1ccccc1)C(C)C)OC
    3.2[11.7 µM], 8.8%
- C[C@@]12CC(=O)C3=C(CCCC3=O)N1CCc1ccccc12
    -3.2, 12.6%
- C[C@@H](CN1c2ccccc2Sc2ccccc21)N(C)C
    4.4[24.8 µM], -0.5%
- CC(=O)NC1[C@H]([C@H](O)[C@H](O)CO)OC(C(=O)O)=C[C@H]1N=C(N)N (some centres undefined)
    -3.2, 7.2%
- COc1cc2c(Nc3ccc(Br)cc3F)ncnc2cc1OCC1CCN(C)CC1
    -4.6, -5.2%
- CN(C)C(=O)c1ccc(-c2nccc(N(C)Cc3ccco3)n2)cc1
    -2.3, -4.6%
- COCCn1c(=O)c(-c2ccccc2)nc2cncnc21
    1.2, 15.4%
- CC(=O)OC[C@@H]1O[C@H](CCO/N=C(\C)CCN2CCCCc3nc(C)c(C)cc32)C=C[C@@H]1OC(C)=O
    0.8[11.7 µM], 4.2%
- C[C@H]1Cc2c(COc3ccccc3)nc3c(c2CO1)CN(C(=O)C1CC1)CC3
    3.9[11.7 µM], 19.2%
- CC(C)NCC(O)COc1ccccc1-n1cccc1 (centres undefined)
    -2.6, -7.3%
- CCC/C=C(\CCC)C(NP(=O)(c1ccccc1)c1ccccc1)c1ccc(C(F)(F)F)cc1 (centres undefined)
    3.0, 18.2%
- CCNc1ncc2nc(C)c(=O)n(CCC#N)c2n1
    -7.2, 13.8%
- O=S(=O)(c1ccccc1)N1CCC2(CCN(c3ccncc3)CC2)CC1
    -3.4, 17.9%
- OCCOCCN1CCN(Cc2cccc(Oc3ccccc3)c2)CC1
    1.5, -5.7%
- COc1ccc(/C=C/C(=O)OCCC(C)C)cc1
    -4.9, 6.4%
- CCCCc1nc2c(c3c1C[C@H](C)OC3)CN(S(=O)(=O)c1ccccc1C(=O)OC)CC2
    1.3[11.7 µM], -22.4%
- CCCCCCCC1=Cc2ccccc2C(C(C(=O)OC)C(=O)OC)N1C(=O)OC (centres undefined)
    2.0[11.7 µM], -10.4%
- C/C(CCN1CCCCc2nc(C)c(C)cc21)=N\O[C@@H](C)c1cc(-c2c(C)cc(C)cc2C)no1
    4.2[11.7 µM], 0.3%
- O=C(Oc1ccccc1)N1CCC2(CC1)CN(c1ccccn1)C2
    -1.0, 2.7%
- COc1ccc(CCNC[C@@H](O)c2ccc(O)cc2)cc1OC
    0.0, ?
- COc1ccc2[nH]cc(CCNc3nc(-c4cccnc4)nc4ccccc34)c2c1
    1.1, -30.1%
- CSCC[C@H](NC(=O)[C@H](CC(C)C)N1CCC(NC(=O)[C@@H](NC(=O)[C@H](Cc2ccccc2)NC(=O)[C@H](CO)NC(=O)[C@H](CC(=O)O)NC(=O)[C@@H](N)CCCCN)C(C)C)C1=O)C(N)=O (some centres undefined)
    1.1, -29.0%
- CC(C)=NOCc1cccc(-c2cc(-c3ccccc3)no2)c1
    -2.5[11.7 µM], -5.3%
- O=c1cc(-c2cccc(O)c2)oc2c(O)c(O)ccc12
    -7.0, ?
- CC[C@@]1([C@@H]2O[C@@H]([C@H]3O[C@@](O)(CO)[C@H](C)C[C@@H]3C)C[C@@H]2C)CC[C@@H]([C@]2(C)CCC3(C[C@H](O)[C@@H](C)[C@@H]([C@@H](C)[C@@H](OC)[C@H](C)C(=O)O)O3)O2)O1 (some centres undefined)
    -0.1, 12.9%
- O=S(=O)(c1ccccc1)N1CCC2(CC1)CN(c1ccccn1)C2
    -13.9, 5.1%
- Cn1cccc1C(=O)N1CCC2(CCCN(Cc3nccs3)C2)CC1
    -3.6, 8.1%
- Cc1ccccc1N1CCN(S(=O)(=O)CC23CCC(CC2NC(=O)C(N)CCS(C)(=O)=O)C3(C)C)CC1 (centres undefined)
    -9.0, 0.7%
- Cc1noc(C)c1-c1ccc2ncnc(NCc3ccco3)c2c1
    3.2, 10.6%
- C[C@@H]1O[C@H](O[C@@H]2\C=C/C=C\C=C/C=C\C[C@H](C)OC(=O)/C=C\[C@H]3O[C@@H]3C[C@H](O)C[C@]3(O)C[C@@H](O)[C@@H](C(=O)O)[C@H](C2)O3)[C@@H](O)[C@H](N)[C@@H]1O (stereo in doubt)
    -0.6[24.8 µM], -11.4%
- O=C(O)c1ccc(NC(=O)[C@H](Cc2ccc(O)cc2)NC(=O)c2ccccc2)cc1
    -0.5&4.1, 14.7%&-0.6%
- CN(C)c1ccc(-c2cncnc2NCc2ccccc2)cc1
    0.2, -17.6%
- O=c1c(O)c(-c2ccc(O[C@@H]3O[C@H](CO)[C@@H](O)[C@H](O)[C@H]3O)c(O)c2)oc2cc(O)cc(O)c12
    0.8, 20.9%
- C=C1C([C@@]2(C)C(OC(C)=O)CC(=O)O[C@@](C)(COC(C)=O)C2CC(=O)OC)C(OC=O)C(OC(=O)C(O)C(C)CC)[C@]2(C)C(c3ccoc3)CC(=O)C12O (some centres undefined)
    3.4, 19.4%
- N#Cc1cccc(-c2nccc(NCc3ccccc3)n2)c1
    8.4, 2.9%
- COc1ccc(-n2c(=O)c(-c3cccs3)nc3cnc(N4CCNCC4)nc32)cc1
    ?, ?
- O=C(O)C(Cc1cc(I)c(O)c(I)c1)c1ccccc1 (centres undefined)
    -3.8, -9.8%
- Cc1noc(C)c1-c1nccc(NC2CC2)n1
    -6.4, -14.9%
- CC12CCC3C(CC3(C)C)C(C)(CCC1=O)O2 (centres undefined)
    -5.0, 7.2%
- FC(F)(F)c1ccc(C2[C@H]3CN(CC4CCCCC4)[C@H](c4ccccc4)C34CC2(c2ccccc2)C4)cc1 (some centres undefined)
    7.7, -6.9%
- CCOc1cc(/C=C(\C#N)C(N)=O)cc(CSc2ccccc2)c1O
    ?, -24.5%
- O=C(N/N=C1/C[C@@H](O)[C@@H](O)[C@@H]2[C@@H]3C(=O)N(Cc4ccc5c(c4)OCO5)C(=O)[C@H]3CC[C@H]12)OCc1ccccc1
    -1.3[11.7 µM], 3.9%
- O=C(c1cnccn1)N1CCC2(CCCN(Cc3nccs3)C2)CC1
    -0.1, 13.9%
- CC(=O)c1ccc(NC(=O)OCCN2CCN(Cc3ccccc3)CCC2=O)cc1
    -1.3, 14.6%
- COC(=O)CC1C(C)(C)C(OC(C)=O)C2CC3=C4CC(=O)OC(c5ccoc5)[C@]4(C)CCC3[C@@]1(C)C2=O (some centres undefined)
    10.1, 1.3%
- CCC(C)C(=O)OC1CC(C)C=C2C=CC(C)C(CCC3CC(O)CC(=O)O3)C21 (centres undefined)
    4.1, 10.2%
- O=C1C=CC2=C3c4cc(O)c(O)cc4C[C@@]3(O)COC2=C1
    ?, 31.6µM*
- Cn1cccc1C(=O)N1CCC2(CCCN(C(=O)Nc3ccccc3)C2)CC1
    -2.2, 15.2%
- COc1cc2c3cc1Oc1cc(ccc1O)CC1c4c(cc(OC)c(O)c4Oc4ccc(cc4)CC3N(C)CC2)CC[N+]1(C)C (centres undefined)
    0.1, 6.7%
- COC(=O)[C@H](Cc1ccccc1)NC(=O)[C@H]1C[C@@H]1[C@H](NC(=O)OCc1ccccc1)c1ccccc1
    -1.4, -24.3%
- COCC(=O)N1CCC2(CCN(Cc3ccncc3)CC2)CC1
    -9.5, 40.9%[activator]
- COC(=O)[C@@H](NC(=O)N1CCc2nc(-c3ccc(OC)cc3C)c3c(c2C1)CO[C@@H](c1ccccc1)C3)C(C)C
    1.1[11.7 µM], -6.5%
- CCOC(=O)C1=C(N)n2c(s/c(=C/c3ccccc3)c2=O)=C(C(=O)OCC)C1c1ccccc1 (centres undefined)
    -0.5, 8.3%
- Cc1ccccc1-c1ccc2ncnc(-n3ccnc3)c2c1
    4.0, 10.8%
- COc1cccc([C@@H]2Oc3ccc(OC)cc3C[C@H]2OC(=O)N[C@H](C)C2CCCCC2)c1
    1.4, -9.0%
- COc1ccc(C(=O)N2CCC[C@@]3(CCN(Cc4nccs4)C3)C2)cc1
    -6.1, 14.5%
- COc1ccc(CNc2nc(NCc3ccc(OC)cc3)c3ncn(C(C)C)c3n2)cc1
    -0.4, -10.3%
- OC[C@H]1O[C@H](n2cnc3c(NC4CCCC4)nc(Cl)nc32)[C@@H](O)[C@@H]1O
    ?, -13.8%
- Cn1cc(-c2nc3cncnc3n(CCN)c2=O)c2ccccc21
    5.7, -6.6%
- N[C@@H](C(=O)O)c1ccc(C(=O)O)cc1
    ?, 3.8%&8.0%

New compounds follow
Under each structure – Menin MLL FP FL, Sfp PPTase inh
- CCCn1c(C)nc2c(NCCCN(CCO)CCO)nc(C)nc21
    0.2, 42.7%[activator]
- CN1CCN(c2ncc3nc(-c4cccs4)c(=O)n(CCC#N)c3n2)CC1
    ?, -14.5%
- CC(C)(C)N1C(=O)[C@H]2[C@H]3[C@H](O)[C@H](O)C/C(=N/OCc4ccccc4)[C@H]3CC[C@@H]2C1=O
    1.5[11.7 µM], 34.7%[activator]
- CCCn1c(-c2ccc(F)cc2)nc2c(N3CCN(Cc4nc(OC)cc(OC)n4)CC3)nc(C)nc21
    -1.7, -27.8%
- COc1cccc(-c2ccc3ncnc(NC4CC4)c3c2)c1
    4.0, 8.3%
- COc1ccc(NC(=O)N2CC3(CCN(C(=O)c4c(C)noc4C)CC3)C2)cc1
    -6.0, 10.2%
- COc1ccc(C(=O)N2CCC3(CC2)CN(C(=O)Nc2cccc(C#N)c2)C3)cc1
    -1.1, 10.5%
- Cn1cccc1C(=O)N1CCC2(CCN(C(=O)Nc3cccc(C#N)c3)CC2)CC1
    -5.1, 14.0%
- CCC1(CC)C(=O)C2=C3C1[C@H](C(=O)OC)CC(C(=O)OC)C[C@H]3[C@H]1C(=O)N(C)C(=O)[C@H]1[C@H]2C (some centres undefined)
    -0.6, 6.6%
- COc1ccc(Oc2ncc3nc(C)c(=O)n(C4CC4)c3n2)cc1
    -20.5, 3.1%
- CCCc1nc(SCC(=O)N2CCc3ccccc32)c2c(C)c(C)sc2n1
    -0.9, -4.9%
- CCCCNc1nc(C)nc2c1nc(-c1ccccc1)n2CCN1CCCC1
    -0.4, 20.1%
- C1CCN2CC3CC(CN4CCCC[C@@H]34)C2C1 (some centres undefined)
    -6.3, -17.9%
- O=c1c(-c2ccc(Cl)cc2)nc2cnc(N3CCOCC3)nc2n1CCc1ccccc1
    1.3, 14.3%
- COc1ccc2c(c1)O[C@@H](c1ccc3c(c1)OCO3)[C@H](OC(=O)N[C@H]1CCCc3ccccc31)C2=O
    0.4, -9.3%
- O[C@H](CN1CCN(c2cccc(Cl)c2)CC1)C(c1ccccc1)c1ccccc1
    ?, 3.4%
- Cc1ccccc1-c1cncnc1NCCN1CCOCC1
    -2.5, -28.3%
- CCC1=C2CC[C@H]3C(=O)N(CC(=O)OC)C(=O)[C@H]3[C@H]2[C@@]2(C)C(=O)N(CC3CC3)C(=O)N2C1=O
    4.0, 50.1µM*
- Nc1ccc2c3c(cccc13)C(=O)NC2=O
    ?, ?
- OCC1OC(Oc2cccc3cccnc23)C(O)C(O)C1O (centres undefined)
    11.1, 5.0%
- COc1ccc(-n2c(=O)c(-c3cccs3)nc3cnc(N4CCOCC4)nc32)cc1
    ?, 8.5%
- O=C(/C=C\c1ccccc1)c1ccccc1O
    1.0[11.7 µM], 14.4%
- CCNc1ncc2nc(C)c(=O)n(CCOC)c2n1
    0.0, 5.7%
- c1cncc(-c2ccc3ncnc(N4CCNCC4)c3c2)c1
    -0.3, 12.3%
- NCCC(=O)N[C@@H](Cc1cnc[nH]1)C(=O)O
    ?, 12.3%
- CCCCCC1C(=O)CCC1CC(=O)O (centres undefined)
    -0.8, 28.5%
- Cn1c(N)c(C(=O)COC(=O)c2cc(-c3ccccc3)nc3ccccc23)c(=O)n(C)c1=O
    -3.8, 3.7%
- CCCCCCCCCCCC(CC1OC(=O)C1CCCCCC)OC(=O)C(CC(C)C)NC=O (centres undefined)
    4.5, 18.2%
- CC1(C)OC2C(CO)OC(n3cnc4c(=O)[nH]cnc43)C2O1 (centres undefined)
    5.1, 9.1%
- c1ccc2c(NC3CC3)nc(-c3ccoc3)nc2c1
    ?, ?

3 entries out of the list above, arranged by the value under Menin MLL FP FL, high to low:
molecule	Menin MLL FP FL
CC1(C)OC2C(CO)OC(n3cnc4c(=O)[nH]cnc43)C2O1 (centres undefined)	5.1
CCCCCCCCCCCC(CC1OC(=O)C1CCCCCC)OC(=O)C(CC(C)C)NC=O (centres undefined)	4.5
CCCCCC1C(=O)CCC1CC(=O)O (centres undefined)	-0.8

(listing goes on)
Under each structure – Menin MLL FP FL, Sfp PPTase inh
- C=CC1=C2C=C(C3CC3)N(Cc3ccco3)C=C2C(=O)C(C)(OC(=O)c2ccco2)C1=O (centres undefined)
    0.5[11.7 µM], 8.2%
- OCCNCCCOc1cccc(Cl)c1Cl
    2.8, -23.2%
- C#CCCCO/N=C1/C[C@@H](O)[C@@H](O)[C@@H]2[C@@H]3C(=O)N(Cc4ccc5c(c4)OCO5)C(=O)[C@H]3CC[C@@H]12
    -0.6[11.7 µM], 0.9%
- COc1ccccc1-c1ccc2ncnc(NC3CC3)c2c1
    -1.1, 18.5%
